# 2A Renilla = lowers the Renilla signal of an FMDV 2A StopGo reporter | HEK cells with a luciferase reporter of 2A StopGo recoding | Potency, µM (titrated, usually from 57.5 µM), without a hit: at the highest dose signal change, negative = less light | 120,000 tested, 0.32% active; active means well fitted falling curve with a large enough effect; inconclusive means small, poorly fitted or top-dose-only effect; inactive means no such curve, though single readings can be large or run the other way; note: nearly all actives have a fitted effect of over 55% in size; overnight with compound
# 2A firefly = lowers the firefly signal of an FMDV 2A StopGo reporter. 120,000 tested, 0.23% active. HEK cells with a luciferase reporter of 2A StopGo recoding. Potency, µM (titrated, usually from 57.5 µM), for inactives: at the highest dose signal change, negative = less light; active = well fitted falling curve with a large enough effect; inconclusive = small, poorly fitted or top-dose-only effect; inactive = no such curve, though single readings can be large or run the other way; note: nearly all actives have a fitted effect of over 60% in size; overnight with compound
# Starred values were filed as active, the others as inactive; ? = inconclusive; [ ] = dose if it differs, or a comment. % is set by controls: 0 for no effect and ±100 for the full control effect; potency is the fitted concentration of half-maximal effect.
Molecule	2A Renilla	2A firefly
CCC(C)c1ccccc1NC(=O)Cn1nc(C(=O)O)c2ccccc2c1=O (stereo not given)	-2%	6%
CCCOc1ccc(C2C(=O)N(C3CCC(C)CC3)CC(=O)N2CCC2=CCCCC2)cc1OC (stereo not given)	-11%	-23%
CCC(=O)N1c2ccccc2CC1C(=O)NCc1ccccc1C (stereo not given)	-5%	-3%
COc1ccc(N2CCN(C(=O)Cc3coc4ccc(C)cc34)CC2)cc1	-34%	17%
N#Cc1cccc(/C=C/C(=O)NCCc2cccs2)c1	-13%	0%
COc1ccc(NC(=O)CSc2nccn2C2CCCC2)cc1OC	-5%	-3%
COc1ccc(NS(=O)(=O)c2ccc(NS(=O)(=O)c3ccc4c(c3)OCCO4)cc2)cc1	133%[activator]	-8%
CC1CCCCN1C(=O)CN1CCC(c2cc3ccccc3[nH]2)CC1 (stereo not given)	-6%	0%
CC(C)c1ccc(C(=O)Nc2cc(C(F)(F)F)ccc2Cl)cc1	17%	60%[activator]
COC(=O)c1c(C)[nH]c(C(=O)C(C)OC(=O)c2ccc(O)cc2)c1C (stereo not given)	-15%	-22%
COc1ccc(CNC(=O)CN2C(=O)CSc3ccc(S(=O)(=O)N(C)C)cc32)cc1	1%	-9%
CCn1c2c(c(=O)n3ncc(C(=O)Nc4cccc(Cl)c4C)c13)CN(Cc1ccc(OC)cc1)CC2	33%[activator]	33%
COc1ccc(CNC(=O)CSc2nc(-c3ccc(OC)cc3)cc(C(F)(F)F)n2)cc1	-13%	-12%
CCCCCCCCCCCCS(=O)CC(Cl)CCl (stereo not given)	-12%	1%
COC(=O)c1cncn1C(C)c1ccccc1 (stereo not given)	-7%	-12%
COc1ccc(Nc2nc(-c3ccc(CNC(C)=O)s3)cs2)cc1	6%	164%[activator]
Cc1ccccc1OCC(=O)Nc1nonc1-c1ccccc1	74%[activator]	49%[activator]
O=C(CSc1c2c(nc3ccc(Cl)cc13)CCCC2)NCc1cccs1	9%	9%
CCOC(=O)c1oc2cc(OC)ccc2c(=O)c1-c1ccc(Br)cc1	-9%	5%
Cc1nc2sc(C#N)c(N)c2c(C)c1Cl	-2%	8%

# Brought forward from above: four compounds; new compounds follow.
Molecule	2A Renilla	2A firefly
Cc1ccccc1OCC(=O)Nc1nonc1-c1ccccc1	74%[activator]	49%[activator]
O=C(CSc1c2c(nc3ccc(Cl)cc13)CCCC2)NCc1cccs1	9%	9%
CCOC(=O)c1oc2cc(OC)ccc2c(=O)c1-c1ccc(Br)cc1	-9%	5%
Cc1nc2sc(C#N)c(N)c2c(C)c1Cl	-2%	8%
Cn1c(=O)c2c(ncn2CCC(=O)Nc2ccccc2Cl)n(C)c1=O	-8%	-5%
O=C(Oc1ccccc1C(=O)O)c1ccccc1O	-3%	-6%
CC(=O)c1c(-c2ccc(Cl)cc2)nc2n(CCN3CCOCC3)c3ccccc3n12	-4%	-3%
O=[N+]([O-])c1ccc2nc(C(F)(F)F)[nH]c2c1	?	?
CCOc1ccc(-c2cc(C(=O)Oc3ccc(F)cc3)no2)cc1	1%	10%
O=C(COc1ccc(F)cc1)Nc1ccc2oc(-c3ccccc3F)nc2c1	-6%	66%[activator]
O=C(Nc1cc(-c2nc3ccccc3o2)ccc1Cl)c1ccc(N2CCCCC2)c([N+](=O)[O-])c1	-4%	168%[activator]
COc1ccccc1C(=O)COC(=O)C1(c2ccc(F)cc2)CCCC1	2%	4%
CCOC(=O)c1c(S(=O)(=O)Nc2cc(Cl)c(OC)cc2OC)c(C)n(C)c1C	40%[activator]	7%
Cc1nn(-c2ccccc2)c(C)c1CN(C)C(=O)CNC(=O)c1ccc(Oc2ccccc2)cc1	?	?
COCCNc1ccc(-c2nc(-c3cccc(C)c3)no2)cc1[N+](=O)[O-]	-13%	22%
COc1ccc(OC)c(NC(=O)c2nc3ccccc3nc2N2CCOCC2)c1	18%	16%
CC(C)(C)c1ccc(CCC2OCC(CN3CCCC3)O2)cc1 (stereo not given)	15%	?
COC(=O)Cn1ccc2cc(S(=O)(=O)N3CCCCCC3)ccc21	6%	-12%
CCOC(=O)C1CCC(CN(Cc2ccc(Cl)cc2)S(=O)(=O)c2cccc(Cl)c2C)CC1 (stereo not given)	-11%	-15%
COc1ccc(C)cc1-n1nnnc1SCC(=O)Nc1ccc(N2CCCC2=O)cc1	33%	0%
O=C1c2ccccc2NC(c2cnn(-c3ccccc3)n2)N1c1ccc2c(c1)OCO2 (stereo not given)	0%	118%[activator]
COc1cc2nc(Nc3cccc(C)c3)nc(N)c2cc1OC	?	1%
Cc1cc(C)cc(NC(=O)CCc2nnc3n(CC(C)C)c(=O)c4ccccc4n23)c1	-2%	-3%
O=C(CCC1CCCO1)NC1CCCCNC1=O (stereo not given)	7%	0%
CCCCCCc1ccc(-c2ccc(/C=C/C(=O)O)cc2)nc1	-3%[1.06 µM]	?
COc1ccc2nc(SC3CC(=O)N(c4cccc5ccccc45)C3=O)nc(C)c2c1 (stereo not given)	-1%	16%
O=C(COc1cc(Cl)ccc1Cl)Nc1ccc(-n2cnnn2)cc1	13%	19%
CCN(C(=O)c1ccc(F)cc1I)C1CC1	-8%	-5%
CCCNC(=O)c1cc2n(n1)CCCN(Cc1ccc(F)cc1)C2=O	58%[activator]	44%[activator]
Cc1cccc2c(=O)c(-c3ccccc3)c(N)oc12	-15%	52%[activator]
COc1cccc(C(=O)Nc2cc3c(cc2C(=O)c2ccc(C)cc2)OCCO3)c1	-12%	-7%
COCCCn1c(=N)c(C(=O)NCc2cccnc2)cc2c(=O)n3cccc(C)c3nc21	-7%	21%
CCCNC1CCCC1	7%	4%
CCCCOc1ccc(C#N)cc1OC	10%	41%[activator]
COC(=O)c1cc(-c2ccccn2)nc2ccccc12	-12%	7%
Cc1ccc(NC(=O)c2oc3ccccc3c2NC(=O)c2cc3ccccc3o2)cc1	-5%	42%[activator]
Cc1ccc(-c2ccc(=O)n(Cc3noc(C(=O)NCc4ccco4)n3)n2)cc1	72%[activator]	1%
CCn1c(SCc2coc(-c3cccs3)n2)nnc1-c1ccccc1	28%	0%
O=C(NCCNC(=O)c1cc2ccccc2[nH]1)C(=O)N1CCN(Cc2ccccc2)CC1	-12%	-15%
CSCCOc1ccc(-c2ccccc2)cc1	-2%[1.06 µM]	22%
CC(Cc1cccs1)N(Cc1ccc(Cl)cc1)C(=O)CC1CCCC1 (stereo not given)	34%[activator]	5%
CSc1nc(Nc2ccccc2F)c(C#N)c(-c2ccccc2)n1	21%	0%
Cc1ccccc1S(=O)(=O)Nc1ccccc1SCc1cc(=O)n2cc(Cl)ccc2n1	25%	128%[activator]
COc1ccc(S(=O)(=O)NCCc2sc(-c3cccnc3)nc2C)c(F)c1	138%[activator]	-1%
Cn1c(NCCc2ccccc2)nc2c1c(=O)n(Cc1ccc(Cl)c(Cl)c1)c(=O)n2C	-12%	-2%
CCOC(=O)C1CCN(C(=O)Cn2nc(CC)n3c(cc4sccc43)c2=O)CC1	-8%	?
CCCC(C)C(=O)NCc1ccccn1 (stereo not given)	16%	5%
COc1cc(C(=O)N2CCCCC2)ccc1OCc1c(C)noc1C	10%	10%
COc1cc(-c2cc(OC)c3c(C)oc(C)c3c(=O)c2)ccc1OC(=O)c1ccccc1F	-8%	-5%
O=C(O)c1ccc(=O)[nH]c1	-14%	-7%[11.5 µM]
CCOC(=O)C(Cc1c[nH]c2ccccc12)NC(=O)COc1ccc(CC)cc1 (stereo not given)	5%	-11%
Cc1ccc(-c2noc(CSc3nnc(C)n3-c3ccc(C)cc3)n2)cc1	-4%	-18%
Cc1c(C(=O)NCCc2nnc3n2CCCCC3)sc2ccccc12	0%	46%[activator]
COc1ccccc1-n1nnnc1SCc1nc2ccccc2[nH]1	-7%	-9%
O=C(/C=C/c1ccc(Cl)cc1)OC1CCCCC1=O (stereo not given)	13%	131%[activator]
COC(=O)c1sc(NC(=O)CN2CCc3ccccc32)c(C(=O)OC)c1C	6%	-4%
Cc1nn(C)cc1S(=O)(=O)Nc1ccn(Cc2c(Cl)cccc2Cl)n1	72%[activator]	-1%
CN(C)S(=O)(=O)c1ccc(NC(=O)CN2CCN(c3ccc(O)cc3)CC2)cc1	-15%	0%
CCN1CCN(c2csc3ccc(C)cc3c2=O)CC1	28%	81%[activator]
O=C(Cc1coc2cc3c(cc12)CCC3)OCc1cccc([N+](=O)[O-])c1	-10%	15%
COc1ccc(-c2nn3c(=O)cc(CN4CCN(C(=O)c5ccc(C(C)(C)C)cc5)CC4)nc3s2)cc1	-8%	-10%
Cc1cc(=O)c(C(=O)OCCOc2ccccc2)nn1-c1cccc(C(F)(F)F)c1	-6%	-9%
CSc1ccc(/C=C(/C#N)C(=O)NC(C)C)cc1	28%	106%[activator]
O=C(CC(CC(=O)c1ccccc1)c1cccs1)c1ccccc1	311%[activator]	0%

# Following part:
Molecule	2A Renilla	2A firefly
Cc1[nH]c2ccccc2c1C(=O)C(=O)Nc1ccc(F)c(Cl)c1	131%[activator]	122%[activator]
O=c1oc2ccccc2c(O)c1C(CC(O)c1ccc(-c2ccc(Br)cc2)cc1)c1ccccc1 (stereo not given)	79%[activator]	1%[11.5 µM]
CCCCn1c(=O)[nH]c(=O)c2c1nc(COC(=O)/C=C/c1ccc(OCC#N)c(OC)c1)n2C	12%	15%
N#Cc1ccc(S(=O)(=O)N2CCN(c3nc(-c4ccccc4)nc4ccccc34)CC2)cc1	-10%	-8%
COC(=O)c1ccccc1NC(=O)Cn1c(=O)n(-c2ccc(Cl)cc2)c(=O)c2c(C)c(C)sc21	3%	2%
CCN(CC)S(=O)(=O)c1cccc(C(=O)Nc2cccc3ncccc23)c1	1%	4%
CCN(CC)CCCOC(=O)c1ccc(O)cc1O	-1%	-10%
Cc1nc(-c2ccc(C)c(N3CCN(C(=O)Nc4cccc(Cl)c4C)CC3)c2)no1	?	25µM*
CN(CC(=O)NC1(C)CCS(=O)(=O)C1)Cc1cccc(Cl)c1Cl (stereo not given)	-3%	3%
Cc1ccc(C(O)(C(=O)NN)c2ccc(C)cc2)cc1	30%	9%
CCOC(=O)c1c(C)oc2ncnc(Nc3ccc(OC)c(OC)c3)c12	-3%	-14%
CCc1cccc(NC(=O)c2cc3c(=O)oc4ccc(C)cc4c3s2)c1	-17%	-17%
CC(CN1CCN(C)CC1)OC(=O)c1cccc(F)c1 (stereo not given)	-7%	-3%
COc1ccc(N(C(=O)c2cccc(C)c2)S(=O)(=O)c2ccc3c(c2)n(C)c(=O)n3C)cc1	62%[activator]	?
O=C(CCC(=O)OCc1ccccc1F)Nc1ccc2c(c1)oc1ccccc12	-4%	140%[activator]
Cc1cc(OC(=O)c2ccc(CSc3ccc(Cl)cc3)cc2)cc(C(C)C)c1	14%	0%
Nc1ccccc1N	-4%[114 µM]	95%[activator][22.9 µM]
Cc1nc(Sc2cccc(C(F)(F)F)c2)c2c(-c3cccs3)csc2n1	-5%	16%
Cc1ccccc1NC(=O)CSc1nc2c(oc3ccccc32)c(=O)n1Cc1ccco1	-8%	6%
O=C(OCC(=O)C12CC3CC(CC(C3)C1)C2)c1ccccc1Cl	20%	60%[activator]
COc1cc(CNC(=O)Nc2ccc(C)c(F)c2)ccn1	40%[activator]	125%[activator]
CCOC(=O)CSc1nc2ccc(NC(=O)c3ccc(Cl)cc3)cc2s1	-9%	57%[activator]
Cc1c(CCC(=O)N2CCN(Cc3ccccc3)CC2)c(=O)oc2cc(O)ccc12	1%	2%
O=C(CSCc1ccccc1Cl)N1CCN(c2ccc(F)cc2)CC1	-8%	8%
Cc1cc(OCCn2c(CNC=O)nc3ccccc32)ccc1Cl	8%	16%
COc1cc(CNC(=O)Cc2ccc(Cl)cc2)ccn1	2%	43%[activator]
CCCc1cc(=O)oc2cc(OC(C)C(=O)Nc3cccc(C(C)=O)c3)ccc12 (stereo not given)	15%	0%
COC(=O)c1c(C)cccc1NCC(=O)NC(=O)NC(C)C	-2%	0%
CC(C)CCOc1ccc(C(=O)NCC2OCCc3ccccc32)cc1 (stereo not given)	-14%	-14%
O=C(NCCC(c1ccccc1)c1ccccc1)c1cc(-c2ccccc2)nc2ccccc12	?	?
Cc1ccc(C)c(C(=O)c2sc(Nc3cccc(F)c3)nc2N)c1	-38%	-30%
COc1ccccc1N1CCN(C(=O)CSc2nc(C)cc(=O)[nH]2)CC1	-8%	18%
CCCn1c(Br)nc2c(=O)n(C)c(=O)n(C)c21	-12%	-1%
Cc1cc(C)cc(NC(=O)C(=O)NCCCN2CCOCC2)c1	-11%	2%
Clc1ccc(-c2noc(-c3ccncc3)n2)cc1	16%	21%
Cc1ccc2c(C)c(CCC(=O)Nc3ccccc3)c(=O)oc2c1	9%	23%
COc1ccc(S(=O)(=O)Nc2ccc(Cl)c(S(=O)(=O)N3CCOCC3)c2)cc1	196%[activator]	5%
O=C(COc1ccc(Cl)cc1)Nc1ccccc1OCc1cc(=O)n2ccccc2n1	-1%	-12%
O=C(CCSCc1ccccc1F)N1CCN(c2ccc(F)cc2)CC1	13%	5%
Cc1cc(SCC(=O)NCc2ccccc2)nc(=O)[nH]1	-4%	-5%
CCCC(=O)N(c1ccc2oc(C)c(C(C)=O)c2c1)S(=O)(=O)c1ccc(C)cc1	77%[activator]	17%

# Screens: PubChem BioAssay, National Center for Advancing Translational Sciences (NCATS)
